KCNQ2 inh: KCNQ2 potassium channel inhibitors, primary screen, cell-based, CHO-K1, FluxOR thallium flux, B-score (AID 2156); 20 min; active compounds read low; only compounds with negative scores are shown here; some inactives read as strong as hits; B-score at 10 µM; 310,000 tested, 1.1% active;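 active = fluorescence ratio B-score at most minus 3 library SDs, with starting brightness B-score within 2 library SDs, cut at about -5.5 in these data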
Target sequence (O88943 whole entry, looked up): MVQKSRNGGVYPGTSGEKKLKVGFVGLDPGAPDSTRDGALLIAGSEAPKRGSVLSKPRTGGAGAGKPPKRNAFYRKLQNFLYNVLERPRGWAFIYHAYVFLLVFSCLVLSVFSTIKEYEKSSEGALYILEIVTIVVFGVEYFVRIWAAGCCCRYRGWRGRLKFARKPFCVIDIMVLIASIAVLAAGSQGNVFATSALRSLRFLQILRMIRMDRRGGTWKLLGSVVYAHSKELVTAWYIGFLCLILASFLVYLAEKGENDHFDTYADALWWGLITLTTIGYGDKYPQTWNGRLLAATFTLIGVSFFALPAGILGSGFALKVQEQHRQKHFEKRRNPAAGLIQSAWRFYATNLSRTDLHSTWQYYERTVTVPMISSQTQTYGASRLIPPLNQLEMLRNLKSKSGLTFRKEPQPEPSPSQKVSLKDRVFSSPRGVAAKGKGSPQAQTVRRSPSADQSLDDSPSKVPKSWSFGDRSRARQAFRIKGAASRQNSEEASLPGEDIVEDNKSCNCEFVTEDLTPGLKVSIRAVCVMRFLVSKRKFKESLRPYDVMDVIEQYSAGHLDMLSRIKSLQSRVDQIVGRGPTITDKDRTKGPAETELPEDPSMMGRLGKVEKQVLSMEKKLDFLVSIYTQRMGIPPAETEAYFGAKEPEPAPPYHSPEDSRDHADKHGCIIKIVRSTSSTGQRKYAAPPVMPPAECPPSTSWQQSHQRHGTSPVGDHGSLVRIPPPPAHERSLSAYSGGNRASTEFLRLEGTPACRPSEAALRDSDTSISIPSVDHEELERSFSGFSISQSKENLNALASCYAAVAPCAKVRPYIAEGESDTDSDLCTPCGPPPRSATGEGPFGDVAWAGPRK
KCNQ2 inh baseline: second read-out of KCNQ2 inh, no call of its own (marks repeat the call); B-score; measured here: initial fluorescence intensity artifact check;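 brightness before thallium and not channel activity; 0 = typical well and far values either way flag optical interference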
Starred values were filed as active, the others as inactive; i = inactive. Not all compounds are listed (hit frequency here may not be typical).

Values run as follows: KCNQ2 inh	KCNQ2 inh baseline
Cc1c(N=Nc2c(O)n(Cc3ccccc3)c(=O)[nH]c2=O)c(=O)n(-c2ccccc2)n1C
 : i	0.01
CN(C)CCN(C(=O)COc1ccc(Cl)cc1)c1nc2cc3c(cc2s1)OCO3
 : i	-2
c1ccc(-c2ccc(-c3n(-c4ccccn4)c4ccccc4[n+]3-c3ccccn3)cc2)cc1
 : -7.7*	-0.4*
Oc1ccc(CC2(N3CCCC3)CCCCC2)cc1
 : i	0.56
CCN1CCN(c2ccc(N)c(C)c2)CC1
 : i	-0.38
Cc1ccc2c(c1)CCCN2N=O
 : i	1.2
O=c1[nH]c(=S)n(C2CC2)c(O)c1C=NCCN1CCOCC1
 : i	-0.32
CSc1ccccc1C(=O)C1CCCN(Cc2cccc(C)n2)C1 (stereo not drawn)
 : i	1.8
CCC(=O)N1CCN(CCN=Cc2c(O)n(C)c(=O)n(C)c2=O)CC1
 : i	0.42
CCOP(=O)(OCC)C(NC(=O)c1ccccc1Cl)=C(Cl)Cl
 : i	0.68
O=C1NC(=O)N(c2ccccc2)C(=O)/C1=C/c1ccc2c(c1)Cc1ccccc1-2
 : i	-1.2
O=P(O)(O)Cc1ccccc1OP(=O)(c1ccccc1)c1ccccc1
 : i	-0.05
CCSc1cc(C2C(C#N)=C(N)Oc3n[nH]c(C)c32)c(C)o1 (stereo not drawn)
 : i	-0.75
COc1ccc(CN2CCCCC2c2cccnc2)cc1C (stereo not drawn)
 : i	0.62
Cc1nnc2n1-c1ccc(Br)cc1C(c1ccccc1Cl)=NC2
 : i	3
Nc1c(C(=O)NCC2CCCO2)c2nc3ccccc3nc2n1Cc1ccco1 (stereo not drawn)
 : i	0.07
Cc1ccnc(NS(=O)(=O)c2ccc(N=Cc3c(O)n(C)c(=O)n(C)c3=O)cc2)n1
 : i	1.4
Cc1cc(OC(=O)c2cccs2)c2c3c(c(=O)oc2c1)CCCC3
 : i	1.3
COc1ccc(OC)c(N2C(=O)NC(=O)C(CCc3ccncc3)(CCc3ccncc3)C2=O)c1
 : i	0.04
COc1ccccc1N1C(=O)CC(=O)NC1=O
 : i	0.04
O=c1oc2ccccc2c(O)c1[C@H]1c2ccc(O)cc2Oc2c1c(=O)oc1ccccc21
 : i	1.3
CCCNC(=O)N1[C@H]2CC[C@@H]1C(C(=O)OC)=C(c1ccc(S(C)(=O)=O)cc1)C2
 : i	0.98
CC1CC(OC(=O)c2ccccc2)(c2ccccc2)C(C)CN1C (stereo not drawn)
 : i	1.6
C/C(=C\c1ccc(N(C)C)cc1)[N+](=O)[O-]
 : i	1.8
Cn1cccc1CN1CCN(C(=O)COc2ccccc2)CC1
 : i	-1.7
COC(=O)C1=C(N)Oc2c(c(=O)oc3ccccc23)[C@]12C(=O)N(C)c1ccccc12
 : i	4.8
COC(=O)C1=C(c2ccc(S(C)(=O)=O)cc2)C[C@@H]2CC[C@H]1N2C(=O)N1CCC(C)CC1
 : i	0.45
COc1ccc(OC)c(/C=N/OC(=O)Nc2ccc(Cl)cc2)c1
 : i	-1.7
CN1[C@@H]2CC[C@H]1CC(OC(=O)C1C=Nc3ccccc31)C2 (stereo partly drawn)
 : i	-1.7
CC(C)C(=O)c1cn(Cc2ccc(C#N)cc2)c2ccccc12
 : i	4.6
COC(=O)C1=C(c2ccc(S(C)(=O)=O)cc2)C[C@@H]2CC[C@H]1N2C(=O)NCc1ccc(F)cc1
 : i	2.1
C=CCN1C(=O)NC(=O)C(CCc2ccncc2)(CCc2ccncc2)C1=O
 : i	4.4
COc1ccc(CN2CCN(Cc3ccccc3)CC2)c(OC)c1
 : i	-2.2
CC1CCC2C(C)C(=O)OC3OC4(C)CCC1C32OO4 (stereo not drawn)
 : i	0.63
COc1ccc(N/N=C/c2c(O)n(-c3cccc(C)c3)c(=O)[nH]c2=O)cc1
 : i	0.39
Cn1c(O)c(C=NC2CC(C)(C)NC(C)(C)C2)c(=O)n(C)c1=O
 : i	-0.3
CCC1=Nc2cc(C(=O)N3CCC4(CC3)OCCO4)ccc2Sc2ccccc21
 : i	-1.2
Cn1c(O)c(C(=Nc2ccccc2)SCc2ccccc2Cl)c(=O)n(C)c1=O
 : i	0.35
CC(=NCc1cccnc1)c1c(O)n(C2CCCCC2)c(=O)[nH]c1=O
 : i	-1.4
CN1CCc2nc3sc(C(=O)NC4CC4)c(N)c3cc2C1
 : i	0.31
COc1cc(O)c(C(=O)O)c(-c2cc(O)c(O)cc2C)c1
 : i	-0.64
O=c1[nH]c(=O)n(-c2ccc(F)cc2)c(O)c1C=NCCN1CCCCC1
 : i	3.2
CCCCOC(=O)C1=C(N)OC2=C(C(=O)CCC2)[C@]12C(=O)Nc1ccccc12
 : i	-1.1
CN1C(=O)CN=C(c2ccccc2Cl)c2cc(Br)ccc21
 : i	0.03
CCCCNC(=O)CN1C(=O)CN=C(c2ccccc2)c2ccccc21
 : i	1.4

The list goes on (2 carried over from the part before).
Values run as follows: KCNQ2 inh	KCNQ2 inh baseline
CN1C(=O)CN=C(c2ccccc2Cl)c2cc(Br)ccc21
 : i	0.03
CCCCNC(=O)CN1C(=O)CN=C(c2ccccc2)c2ccccc21
 : i	1.4
CC(C)CNC(=O)c1c(N)n(Cc2ccco2)c2nc3ccccc3nc12
 : i	-0.58
O=[N+]([O-])c1ccccc1CN1CC=C(c2ccc(F)cc2)CC1
 : i	0.43
O=C(O)[C@H]1NC[C@H]2C[C@H]21
 : i	0.26
O=C(Nc1ccc(Cl)cc1)Nc1nccs1
 : i	-0.57
O=C1NC(=O)C(CCc2ccncc2)(CCc2ccncc2)C(=O)N1CCc1ccc(F)cc1
 : i	-0.08
O=C(N/N=C/c1c(O)n(Cc2ccccc2)c(=O)[nH]c1=O)c1ccccc1
 : i	-1.3
COc1ccccc1N1C(=O)NC(=O)/C(=C/c2ccc([N+](=O)[O-])s2)C1=O
 : i	1.5
Nc1ccc(C(=O)N/N=C2/CN3CCC2CC3)cc1
 : i	-1
O=C1NC(=O)C(=Cc2ccc(OCC(=O)N3CCOCC3)cc2)C(=O)N1
 : i	0.62
CCCC/C(C)=C/[C@@H](NP(=O)(c1ccccc1)c1ccccc1)c1ccccc1
 : i	0.23
CCc1nc2ccc(Br)cc2c(=O)n1-c1ccccc1C(F)(F)F
 : i	0.49
CN1CCCN(C(=O)COc2ccc(F)cc2F)CC1
 : i	2.1
COc1ccc(OC)c2c1CCC1NCCOC21 (stereo not drawn)
 : i	1.8
Cn1c(O)c(/C=N/N2CCOCC2)c(=O)[nH]c1=S
 : i	-1.2
C/C(=N\N1CCCCCC1)c1c(O)n(-c2ccccc2)c(=O)[nH]c1=O
 : i	-0.51
O=C(C(=C1N(Cc2ccc(Cl)nc2)CCN1Cc1ccc(Cl)nc1)[N+](=O)[O-])C(Cl)Cl
 : i	2.5
NCCc1c(Cc2ccccc2)[nH]c2ccccc12
 : i	0.47
CCCN1CCc2cccc3c2[C@H]1Cc1ccc(O)c(O)c1-3
 : -6*	-1.6*
Oc1ccc(-[n+]2c(-c3ccccc3)cc(-c3ccccc3)cc2-c2ccccc2)cc1
 : -6.9*	-2.4*
Cc1nc2ccccc2c(=O)n1-c1ccc(Cl)cc1Cl
 : i	-0.76
Cc1ccc(-n2c(C)cc(/C=C3/C(=O)NC(=O)N(C)C3=O)c2C)cc1
 : i	4.5
COc1cc(C)c(-c2nc(CN3C[C@@H]4C[C@@H](C3)c3cccc(=O)n3C4)c(C)o2)cc1C
 : -5.8*	0.71*
O=C(COc1ccccc1)c1cn(Cc2ccccc2)c2ccccc12
 : i	-0.85
O=C(CNC1CCCCC1)N1CCC2(CC1)OCCO2
 : i	1.3
CCOc1cc(C2C(C#N)=C(N)Oc3c2c(=O)oc2ccccc32)ccc1OC(=O)c1cccs1 (stereo not drawn)
 : i	-1.4
O=C(N/N=C/c1c(O)n(CCc2ccccc2)c(=O)[nH]c1=O)c1ccccc1O
 : i	1
O=C(COc1ccccc1)N1CCN(CC(O)COc2ccccc2)CC1 (stereo not drawn)
 : i	3.7
Oc1ccc(C2=CCNCC2)cc1O
 : i	1.7
Cc1[nH]c2ccc(OC(F)(F)F)cc2c1CCNCc1cccc([N+](=O)[O-])c1
 : i	0.01
COc1cccc(NP(=O)(Oc2ccc(Cl)cc2)Oc2ccc(Cl)cc2)c1
 : i	0.75
Cc1ccc(-c2nc3ccccc3c(=O)n2-c2nccs2)cc1
 : i	0.51
O=c1c2ccccc2nc(C[n+]2ccccc2)n1-c1cccc(C(F)(F)F)c1
 : i	1.7
Cc1nn(Cc2ccccc2Cl)c(C)c1C(=O)OCC(=O)NC1CCS(=O)(=O)C1 (stereo not drawn)
 : i	2.9
O=C1/C(=C\c2ccccc2)C2OCC=C3CN4CCC56c7ccccc7N1C5C2C3CC46 (stereo not drawn)
 : i	0.01
Cc1c(Oc2cc(NN3CCCCC3)c([N+](=O)[O-])cc2[N+](=O)[O-])cccc1[N+](=O)[O-]
 : i	0.03
CC(C)CCOC(=O)c1c(N)n(CC2CCCO2)c2nc3ccccc3nc12 (stereo not drawn)
 : i	-0.16
CCCc1[nH]nc2c1C1(C(=O)N(CC(N)=O)c3ccccc31)C(C(=O)OC)=C(N)O2 (stereo not drawn)
 : i	0.8
COc1ccc(CCC(=O)N2CCC3(CC2)OCCO3)cc1
 : i	-1.3
O=C(O)c1c[nH]c2ccc(S(=O)(=O)N(CCCl)CCCl)cc12
 : i	-0.03
COc1ccc(C(=O)Oc2cccc3cccnc23)cc1S(=O)(=O)N1CCOCC1
 : i	1.5
O=C1NC(=O)C(=Cc2cc3c(cc2[N+](=O)[O-])OCO3)C(=O)N1
 : i	0.75
CCCN1CCC[C@@H]2Cc3nc(N)ncc3C[C@H]21
 : i	-0.12
C/C(=N\Nc1ccccc1)c1c(O)n(Cc2ccccc2)c(=O)[nH]c1=O
 : i	0.39
O=C(CN1CCCC1=O)Nc1ccccc1
 : i	0.44
O=C(NCC(c1cccnc1)N1CCN(c2ccccc2)CC1)Oc1ccccc1 (stereo not drawn)
 : i	0.22

Given in markdown: entries from further up.
| Molecule | KCNQ2 inh | KCNQ2 inh baseline |
| --- | --- | --- |
| CC(C)CNC(=O)c1c(N)n(Cc2ccco2)c2nc3ccccc3nc12 | i | -0.58 |
| CN(C)CCN(C(=O)COc1ccc(Cl)cc1)c1nc2cc3c(cc2s1)OCO3 | i | -2 |
| O=C(O)c1c[nH]c2ccc(S(=O)(=O)N(CCCl)CCCl)cc12 | i | -0.03 |
| Cc1ccc(-n2c(C)cc(/C=C3/C(=O)NC(=O)N(C)C3=O)c2C)cc1 | i | 4.5 |
| O=c1[nH]c(=O)n(-c2ccc(F)cc2)c(O)c1C=NCCN1CCCCC1 | i | 3.2 |
| CCSc1cc(C2C(C#N)=C(N)Oc3n[nH]c(C)c32)c(C)o1 (stereo not drawn) | i | -0.75 |
| Cn1c(O)c(C(=Nc2ccccc2)SCc2ccccc2Cl)c(=O)n(C)c1=O | i | 0.35 |

Next structures follow.
Values run as follows: KCNQ2 inh	KCNQ2 inh baseline
CC12CCCCC1=NC(c1ccc(Br)cc1)N2O (stereo not drawn)
 : i	-0.8
Fc1cccc(F)c1CN1CCN(c2ccc(Cl)cc2)CC1
 : i	0.13
COc1ccccc1N1CCN(Cc2ccccc2F)CC1
 : i	-0.76
Cc1cccc(N2C(=O)NC(=O)/C(=C/c3cc4c(cc3[N+](=O)[O-])OCO4)C2=O)c1
 : i	13
Clc1ccc(CNCCc2ccc3c(c2)OCO3)cc1
 : i	-1
CC(C)CCn1c(N)c(C(=O)NCc2cccs2)c2nc3ccccc3nc21
 : i	-0.86
O=c1[nH]c(=S)[nH]c(O)c1/C=C1/C=c2ccccc2=N1
 : i	1.2
CC(Cc1ccccc1)NC(=O)CN1CCCC1=O (stereo not drawn)
 : i	0.63
C=CCN1C(=O)/C(=C/c2ccc(Br)s2)C(=O)NC1=S
 : i	2
COc1cc(CN2CCN(C(=O)COc3ccccc3)CC2)cc(OC)c1OC
 : i	1.5
CC(=O)N1CN(C(C)=O)CN(C(C)=O)C1
 : i	0.83
COc1ccc(CCn2c(O)c(C=NCCCO)c(=O)[nH]c2=O)cc1OC
 : i	1.5
O=c1[nH]c(=O)n(-c2ccc(Br)cc2)c(O)c1C=NC(CO)(CO)CO
 : i	-0.12
CC(NCc1cccc(Cl)c1Cl)C(O)c1ccccc1 (stereo not drawn)
 : i	1.8
CC(=O)Nc1ccccc1C(=O)OCc1cccc(F)c1
 : i	-2.5
Cc1cc(/C=C2\C(=O)NC(=O)N(Cc3ccco3)C2=O)c(C)n1-c1ccc(C(=O)O)cc1
 : i	-0.27
O=C(C[N+]12CCC(CC1)C(O)C2)c1ccc(Br)cc1 (stereo not drawn)
 : i	3
CN1CC(C(=O)c2cccc(C(F)(F)F)c2)C(c2ccc(Cl)cc2)C1 (stereo not drawn)
 : i	0.17
O=C(c1ccccc1F)c1cn(Cc2ccc(F)cc2)c2ccccc12
 : i	-0.01
O=C(c1ccc(Cl)cc1)C1CCCN(Cc2ccc3nonc3c2)C1 (stereo not drawn)
 : i	-0.12
O=C1C2CCCN2C(c2ccncc2)N1c1ccc(Cl)c(Cl)c1 (stereo not drawn)
 : i	1.6
CCN(CCCl)Cc1ccccc1Br
 : i	-0.47
CCn1c(O)c(/C=N/N2CCOCC2)c(=O)n(CC)c1=S
 : i	1.6
CCOC(=O)N1CCC(NC(=O)CCc2nc(C3=CCN(C)CC3)no2)CC1
 : i	0.71
CN1/C(=C\C=C2C(=O)NC(=S)NC2=O)C(C)(C)c2ccccc21
 : i	2.3
CCOP(=O)(OCC)/C(C#N)=C/c1ccc(Br)cc1
 : i	-2.1
COP(=O)(OC)/C(C=O)=N/Nc1ccc([N+](=O)[O-])cc1
 : i	0.01
CN1C(=O)C(=Cc2coc3ccccc3c2=O)C(=O)N(C)C1=O
 : i	-1
CCC1(OC(=O)c2ccccc2)CC(C)N(C)CC1C (stereo not drawn)
 : i	-0.75
COc1ccccc1CN1CCN(C(=O)COc2ccc3ccccc3c2)CC1
 : i	2.6
CCN(CC)S(=O)(=O)c1ccc(NN=C(C#N)C#N)cc1
 : i	-0.26

High-throughput results (PubChem)
